gsp antag = qHTS for Antagonists of gsp, the Etiologic Mutation Responsible for Fibrous Dysplasia/McCune-Albright Syndrome: qHTS | gsp-mutant cells, cAMP HTRF, 30 min; control for the full effect not named in the record | Potency, µM (series often up to 76.9 µM), inactives show at the top dose activity change, negative = inhibition, actives largely listed as inhibitors | 340,000 tested, 0.4% active | AID 624288, 2012; active = falling curve of any shape with a large fitted effect; inconclusive = falling curve, mostly with a smaller effect; inactive = flat or rising curve; cell line not stated here;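 further: intracellular cAMP measured with PDE inhibitor Ro 20-1724 present during compound exposure; potency means the concentration at half of the fitted maximal effect; on the % scale 0 is the no-effect control and ±100 the full control effect; nearly all actives have a fitted effect of over 65% in size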
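Measurement of cellular cAMP by homogeneous time-resolved fluorescence following a 30 min compound exposure at 37C. The PDE inhibitor […] was present throughout; the assay buffer was DPBS with 0.05% BSA and 0.005% Tween 20.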
gsp ag = qHTS for Agonist of gsp, the Etiologic Mutation Responsible for Fibrous Dysplasia/McCune-Albright Syndrome: qHTS; gsp mutant cells, cAMP HTRF, 30 min; control for the full effect not named in the record; Potency, µM (highest dose often 76.9 µM), for inactives: at the top dose activation (cAMP increase), most hits filed as activators; 340,000 tested, 0.13% active; active = well fitted activation curve with a large enough effect; inconclusive = small, poorly fitted or top-dose-only effect, or another doubt; inactive = no such curve, though single readings can be large or run the other way; cell line not stated here;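 further: phosphodiesterase inhibitor Ro 20-1724 added with compounds to block cAMP breakdown; potency means the concentration at half of the fitted maximal effect; nearly all actives have a fitted effect of over 60% in size; about a fifth of the inactives were tested at one dose only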
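Cells in DMEM/10% FBS with G418 were pretreated with compounds in DMSO plus […] (300 uM stock) for 30 min at 37C. cAMP was measured by HTRF (cAMP-d2 plus anti-cAMP antibody-K) after 30 min at room temperature.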
ClpP mod = qHTS Assay for Activators of ClpP | purified B. subtilis ClpP, FRET peptide cleavage, 20 min | AID 651965, 2013 | ATP-dependent Clp protease proteolytic subunit (Bacillus subtilis (strain 168)), P80244 | Potency, µM (highest dose often 57.5 µM), inactives show at the top dose activity change, negative = active | 340,000 tested, 1.9% active; active = well fitted falling curve with a large enough effect; inconclusive = small, poorly fitted or top-dose-only effect; inactive = no such curve, though single readings can be large or run the other way; further: potency means the concentration at half of the fitted maximal effect; the source files actives as falling curves though it sought activators and does not explain the sign; nearly all actives have a fitted effect of over 65% in size; many hits overshoot -100%
Target sequence (P80244 whole entry, looked up): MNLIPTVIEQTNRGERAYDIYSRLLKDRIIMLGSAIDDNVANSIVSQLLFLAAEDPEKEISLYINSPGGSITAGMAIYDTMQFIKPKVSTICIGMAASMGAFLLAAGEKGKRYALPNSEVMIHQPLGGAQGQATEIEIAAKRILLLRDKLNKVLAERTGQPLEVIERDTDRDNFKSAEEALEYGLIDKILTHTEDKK
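ClpP 10 microg/mL final, pH 8 Tris/KCl buffer with BSA, glycerol, Tween-20; compound pinned in; FRET-FV substrate; RT 20 min; Ex320/Em430; ΔFRET vs ADEP 5.8 microM, DMSO, no enzyme.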
TRPML1 ag = qHTS for Agonists of the Human Mucolipin Transient Receptor Potential 1 (TRPML1); Mucolipin-1 (Homo sapiens), Q9GZU1; AID 624414, 2012; activation, % (no concentration beside the values); TRPML1-expressing cells, Ca2+ dye fluorescence, FDSS; host cell line not named in the record; reference of the full effect not given here; 410,000 tested, 0.12% active; in the data active = activation above about 50%; inconclusive = about 30% to 50%; inactive = below about 30%; further: 0% is about no effect; the text of the record puts the active cut at 80%
Target sequence (Q9GZU1 whole entry, looked up): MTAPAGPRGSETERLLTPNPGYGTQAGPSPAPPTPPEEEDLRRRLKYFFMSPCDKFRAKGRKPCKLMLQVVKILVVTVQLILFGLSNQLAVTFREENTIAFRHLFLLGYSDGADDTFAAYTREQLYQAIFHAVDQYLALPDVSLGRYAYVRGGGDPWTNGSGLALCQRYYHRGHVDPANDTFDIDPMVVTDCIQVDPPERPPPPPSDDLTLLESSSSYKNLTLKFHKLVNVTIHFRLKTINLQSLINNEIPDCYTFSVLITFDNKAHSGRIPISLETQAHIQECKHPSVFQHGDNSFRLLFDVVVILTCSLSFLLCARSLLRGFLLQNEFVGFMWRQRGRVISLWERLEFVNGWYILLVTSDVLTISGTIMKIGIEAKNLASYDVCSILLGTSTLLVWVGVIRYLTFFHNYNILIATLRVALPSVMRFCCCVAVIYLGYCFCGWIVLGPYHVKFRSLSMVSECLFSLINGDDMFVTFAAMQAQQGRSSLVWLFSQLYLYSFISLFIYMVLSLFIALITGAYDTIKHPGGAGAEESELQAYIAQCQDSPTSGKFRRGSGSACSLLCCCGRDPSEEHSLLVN
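Calcium fluorescence on an FDSS kinetic reader gave the read-out. Tet-induced TRPML1-DL cells were plated overnight, dye-loaded (Ca8 with quencher, 45-90 min, room temperature, dark), then read 110 s after compound addition, and again 110 s after 4uM final 54-4 (EC80).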
TRPML1 inh = qHTS for Inhibitors of the Human Mucolipin Transient Receptor Potential 1 (TRPML1); Mucolipin-1 (Homo sapiens), Q9GZU1; TRPML1-inducible cells, Ca2+ dye fluorescence, FDSS; hits give low values; inhibition of EC80 agonist-evoked calcium signal; activity change, negative = inhibition, % (test concentration not listed); 390,000 tested, 0.02% active; in the data active means activity change below about -50%; inconclusive means about -30% to -50%; inactive means above about -30%;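 further: stimulus is agonist 54-4 at its EC80 concentration; on the % scale 0 is the no-effect control and ±100 the full control effect; compound concentration not given in the record; the text of the record puts the active cut at -80%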
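TRPML1-DL cells, Tet-induced overnight (~16 h, 37 °C) at 1,500 cells/well, were loaded with Ca8 no-wash dye plus quencher for 45-90 min at room temperature. Compounds were pinned during FDSS kinetic reading; agonist 54-4 at EC80 (4 uM final) then added.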
Menin MLL FP FL = qHTS Assay for Inhibitors Targeting the Menin-MLL Interaction in MLL Related Leukemias: Competition With Fluorescein Labeled MLL-derived Peptide; Fluorescence polarization, fluorescein-MLL peptide displacement from menin; FP activity change, % at 61.4 µM; 290,000 tested, under 10 active; AID 1766, 2009; inconclusive = falling polarisation curve, or a change in total fluorescence; inactive = total fluorescence flat and polarisation flat or rising; no compound was filed as active; the % refers to the polarisation; negative = inhibition;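 further: % of control where 0% means no effect; inhibitors lower the polarisation; unlabelled MLL peptide was the positive control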
* = called active by the depositor; ? = inconclusive; . = no result given; & = joins results of further samples; [ ] = remark or other dose.

SMILES	gsp antag	gsp ag	ClpP mod	TRPML1 ag	TRPML1 inh	Menin MLL FP FL
CC1CC(C)CN(C(=O)c2ccc(S(=O)(=O)N3CC(C)CC(C)C3)cc2)C1 (configuration not stated)	-3%	-32%[15.4 µM]	.	1.7	44	-3.0
CC(=O)c1cccc(OCC(=O)Nc2cc(Cl)ccc2-n2cncn2)c1	-4%	13%[15.4 µM]	.	-1.2	18	.
O=C(Nc1cc(-c2nc3ccccc3o2)ccc1Cl)c1ccc(Br)o1	.	.	-29%	-0.5	-25	.
COc1ccc(NC(=O)C(OC(=O)c2cnccn2)c2ccccc2)cc1Cl (configuration not stated)	4%	-50%[inhibitor]	-0.7%	0.1	-6	.
COc1ccc(NC(=O)c2ccco2)cc1NC(=O)c1cc(Cl)ccc1OC	.	.	-24%	0.7	-3	.
COc1ccc(-n2cnc3sc4c(c3c2=O)CCCC4)cc1	?	9%	.	-0.8	8	1.9
CCNC(=S)N1CCCC(c2nc3ccc(C)cc3[nH]2)C1 (configuration not stated)	-2%	10%	-1.6%	3.7	2	1.1
C[C@@H]1CN([C@H](C)CO)C(=O)c2cc(NC(=O)Cc3cn(C)c4ccccc34)ccc2O[C@H]1CN(C)S(=O)(=O)c1ccc(F)cc1	-12%	-27%	-6.6%	0.1	-1	.
Cc1cc(C)nc(N/N=C/c2cccc3ccccc23)n1	1%	19%	-5.6%	-0.6	16	6.7
Cc1cc(NS(=O)(=O)c2ccc(NC(=O)c3cccc(OC(F)F)c3)cc2)nc(C)n1	-10%	?	.	-0.5	-16	2.1
CC1Cc2ccccc2N1C(=O)COC(=O)c1n[nH]c(=O)c2ccccc12 (configuration not stated)	5%	?	-0.1%	2.1	8	.
C=C(C)C1CC=C(C)/C(=N/NC(=O)c2cccc([N+](=O)[O-])c2)C1 (configuration not stated)	-10%	-38%[inhibitor]	-14%	1.1	-12	-1.1
O=c1c2sc3ccccc3c2n(Cc2cccc(F)c2)c(=O)n1CCc1ccccc1	.	.	1.2%	0.9	-2	.
COc1ccccc1NC(=O)CN1C(=O)NC2(CCCCCCC2)C1=O	-9%	16%[15.4 µM]	-0.3%	0.0	15	1.4
CCOCCCNC(=O)C(NC(=O)CNC(=O)c1ccccc1)c1ccccc1 (configuration not stated)	7%	?	-3.7%	0.0	-15	7.1
C/C(=N/NC(=O)CNC(=O)c1ccccn1)c1ccccc1	-2%	-4%	-1.4%	0.2	26	11
CC(C)Cn1c(SCC(=O)c2c(N)n(C)c(=O)n(C)c2=O)nc2ccccc21	9%	10%	-0.3%	0.1	2	6.1
Cc1ccc2nc(NCc3ccccc3)c3nnnn3c2c1	.	.	-23%	0.2	-13	.
C/C(=N\NC(=O)COc1ccc(C(C)(C)C)cc1)c1cc2ccccc2o1	-6%	-3%	.	-0.6	-14	1.0
Cc1noc(C)c1COC(=O)/C=C/c1ccc(Cl)cc1	-4%	0%	1.6%	1.6	30	-0.5
COc1cccc(-c2nc(-c3ccncc3)no2)c1	-4%	7%	.	0.6	2	0.0
CCCCCCn1c(N2CCC(C)CC2)nc2c1c(=O)[nH]c(=O)n2C	2%	0%	-3.7%	-0.6	-5	-2.1
Fc1cccc(CO/N=C/c2c(-c3ccccc3)nc3ccc(Cl)cn23)c1	2%	1%	?	5.6	50	-2.1
CSc1c(CC(=O)NCCO)n(C)c2ccccc12	-3%	-19%	-27%	0.1	-4	-1.1
O=C1CSC(=S)N1c1ccc(Cl)c(Cl)c1	-3%	-39%[inhibitor]	.	0.9	19	5.9
Cc1ccc([C@@H]2[C@@H]3C(=O)N(C)C(=O)[C@@H]3[C@]3(C)C(=O)N(Cc4ccc(-c5ccccc5)cc4)CC(=O)N23)o1	8%	?	-2.3%	-0.4	-13	4.8
O=C(NCCN1CCOCC1)C1CCC(=O)N1Cc1ccccc1Cl (configuration not stated)	9%	29%	-0.8%	0.0	18	3.9
Cc1ccn2c(-c3csc(NCc4ccco4)n3)c(C)nc2c1	?	-1%	-8.3%	2.3	-9	1.3
COc1cc(NC(=O)c2cc(-c3ccc4c(c3)OCO4)on2)cc(OC)c1OC	7%	-17%[15.4 µM]	-3.4%	-0.4&-0.4	17&15	1.9
CCN(CC)CCOC(=O)c1ccc(NC(=O)c2cc3c(=O)n(CC)c4ccccc4c3s2)cc1	.	.	-15%	-0.6	-5	.

Whole records, looked up by structure:
O=C(NCCN1CCOCC1)C1CCC(=O)N1Cc1ccccc1Cl (configuration not stated) is entered as gsp antag = 9%; gsp ag = 29%; ClpP mod = -0.8%; TRPML1 ag = 0.0; TRPML1 inh = 18; Menin MLL FP FL = 3.9
CSc1c(CC(=O)NCCO)n(C)c2ccccc12 is entered as gsp antag = -3%; gsp ag = -19%; ClpP mod = -27%; TRPML1 ag = 0.1; TRPML1 inh = -4; Menin MLL FP FL = -1.1

Continued.
SMILES	gsp antag	gsp ag	ClpP mod	TRPML1 ag	TRPML1 inh	Menin MLL FP FL
Cn1c(C(=O)N2CCN(Cc3ccc4c(c3)OCO4)CC2)cc2c(=O)n(C)c3ccccc3c21	-10%	0%	-3.5%	0.9	5	-1.6
Cc1ccc(NC(=O)CCC(=O)Nc2nnc(C3CCCCC3)s2)cc1	4%	7%	.	0.6	4	-0.5
CC(C)c1ccc(N=C2N=C(N)c3ccccc32)cc1	-17%	19%[15.4 µM]	.	-0.8	-4	2.0
Cc1nn(C)cc1S(=O)(=O)NCc1ccc2c(c1)OCO2	3%	-23%	-0.8%	1.1	9	.
O=C(O)c1cccc(N2C(=O)/C(=C/c3ccc([N+](=O)[O-])cc3)C=C2c2ccccc2)c1	?	7%	1.3%	1.5	2	?
Cc1ccc2c(c1)c(=O)c1ccccc1n2CCCC(=O)Nc1ccc(F)cc1F	.	.	3.8%	4.4	12	.
NS(=O)(=O)c1cc(C(=O)OCC(=O)Nc2ccc(Cl)cc2[N+](=O)[O-])ccc1Cl	?	-4%[15.4 µM]	.	1.4	7	-1.0
Cc1cc2nccc(-c3ccncc3)n2n1	15%	6%	0.8%	-0.4	-5	1.8
COc1ccccc1CN1CCNC(=O)C1CC(=O)NCc1c(C)n[nH]c1C (configuration not stated)	7%	0%[15.4 µM]	.	-1.1	-14	-8.8
Cc1ccc2c(=O)cc(C(=O)Nc3ccc(S(=O)(=O)N(C)Cc4ccccc4)cc3)oc2c1	.	.	-7.7%	1.7	9	.
Cc1ccc(NC(=O)Nc2nnc(Cc3ccc([N+](=O)[O-])cc3)s2)cc1	-17%	-4%	-0.9%	-0.5	-6	.
COc1ccc(S(=O)(=O)N2CCN(Cc3cc(OC)c(O)c(OC)c3)CC2)cc1	5%	-6%	0.8%	-0.1	-3	-0.5
O=C(CSC1=NNC(c2ccccn2)S1)Nc1ccccc1 (configuration not stated)	-2%	-71%[inhibitor]	2.1%	0.9	-11	1.9
Cc1ccc2c(c1)-c1c(cnn1CC(=O)NC(C)CCc1ccco1)CO2 (configuration not stated)	-7%	-29%	-1.9%	0.7	1	3.3
C1=Cc2ccccc2Nc2ccccc21	-6%	-23%	0.1%	0.4	10	3.4
CCn1c(NC(=O)/C=C/c2ccc(F)cc2)nc2ccccc21	?	-34%[inhibitor]	.	1.1	14	-4.1
Cc1ccc(NC(=O)c2ccccc2Cl)cc1-n1cnnn1	11%	3%[15.4 µM]	.	-0.3	-3	3.6
CCOCCCn1c(=S)[nH]c2ncccc2c1=O	-11%	31%	1.1%	-0.7	7	0.4
Cc1nn(CCc2nn[nH]n2)c2nc(-c3ccccc3)cc(C(F)(F)F)c12	-18%	44%	3.3%	2.3	-8	-0.9
COc1ccc(C#Cc2c(-c3ccc(OC)cc3)oc3ccc(-c4ccc(OC)cc4)cc23)cc1	9%	1%	4.0%	0.0	9	.
CCN1CCN(C(=S)c2ccc(SC)cc2)CC1	4%	-50%[inhibitor]	-1.5%	0.5	3	-4.3
CN(CC(=O)Nc1c(Cl)cccc1Cl)C(=O)Cc1ccc2c(c1)CCC2	12%	-4%[15.4 µM]	0.8%	1.6	4	.
COc1ccc(CCC(=O)Nc2cccc(S(=O)(=O)N3CCCCCC3)c2)cc1OC	?	-13%	-1.4%	2.0	5	.
COc1cc(OC)cc(C(=O)NC(C(=O)N2CCc3ccccc3C2)C(C)C)c1 (configuration not stated)	-27%	-18%[15.4 µM]	0.9%	3.4	-1	-2.3
Cc1ccc(C(=O)O/N=C(\N)Cc2cccs2)c(Cl)c1	5%	?	1.4%	0.8	2	.
CCCC(C)NC(C)C(=O)NC1CCCC1 (configuration not stated)	16%	-5%[15.4 µM]	1.2%	-0.5	0	2.9
CCOC(=O)N1CCN(C(=O)Cn2nc(C)c3sc4ccccc4c3c2=O)CC1	-12%	20%	?	0.9	-4	-0.8
O=C(CCNC(=O)Cn1ccc2ccccc2c1=O)NCCCN1CCN(c2ccccc2F)CC1	9%	16%	-18%	0.0	2	7.9
CC(C)NC(=O)NC(=O)COC(=O)/C=C/c1ccccc1[N+](=O)[O-]	11%	-16%[15.4 µM]	.	0.8	-9	-1.7
O=[N+]([O-])c1ccccc1/C=C/CN1CCCC(CO)C1 (configuration not stated)	8%	1%[15.4 µM]	-7.0%	-0.2	20	3.9
CCn1c(/C=C\c2ccccc2C)nc2ccccc2c1=O	?	-32%[inhibitor]	0.4%	3.3	-2	-6.4
Cc1ccc(-c2ccc(=O)n(Cc3ccc(F)cc3Cl)n2)cc1	-12%	23%[15.4 µM]	0.4%	1.6	29	2.7
CCC(=O)Nc1ccc2nc3c(=O)n(C)c(=O)n(C)c3nc2c1	.	.	-1.8%	1.6	-6	.
COc1ccc(COC(=O)c2cc(S(=O)(=O)N3CCCCC3)ccc2N2CCOCC2)cc1	-2%	16%[15.4 µM]	-10%	0.8	8	.
Cc1ccc(-n2cc(CN3CCNC(=O)CC3)c(-c3ccc(F)cc3)n2)cc1	?	2%[15.4 µM]	.	0.4	-8	-0.7
CC1CN(C(=S)Nc2ccccc2)N(c2ccccc2)C1 (configuration not stated)	0%	-29%	-1.2%	7.2	13	-1.6
CCCCc1ccc(C(=O)Nc2ccc3nc(N(CC)CC)cc(C)c3c2)cc1	.	.	?	1.6	20	.
O=C(O)c1ccc(S(=O)(=O)c2ccc3c(c2)C(=O)N(NC(=O)c2cccnc2)C3=O)cc1	1%	?	-1.2%	0.5	-3	5.6
Cc1nn(-c2ccccc2)c(C)c1NC(=O)COc1ccc(F)cc1Cl	1%	-37%[inhibitor]	-0.5%	-0.5	1	8.6
